# Screening data deposited in PubChem by several laboratories.
# Vif A3G: HIV-1 Vif–A3G interaction blockers – biochemical, TR-FRET, GST-Vif 1-94, biotin-A3G peptide, dose response retest, primary screen (AID 1117319). TR-FRET GST-Vif / biotin-A3G peptide binding; higher % means a stronger effect; test concentration not given here; strong numbers were not always called active. one-dose inhibition, %; IC50 in µM for titrated hits. hit rate 0.57% among 260,000;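 active = above the screen mean plus three standard deviations and confirmed in dose response; inconclusive = results disagree or hit not tested in dose response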;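 also: Vif residues 1-94 fused to GST binding biotinylated APOBEC3G peptide 110-148; 0% = full assay without inhibitor and 100% = GST in place of GST-Vif; retest series ran down from 100 µM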
# AF4-AF9 inh: MLL-AF4/AF9 protein interaction inhibition | hit rate 0.47% among 350,000 | AlphaScreen, biotin-AF4 peptide binding to FLAG-AF9 | inhibition, % at 10 µM;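 active = every replicate reaching a set inhibition limit, whatever the replicate mean, cut at about 25% in these data; inconclusive = mean inhibition reaches that limit but some replicates miss it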;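 also: 0% = plate neutral control median and 100% = total signal loss; the record names both 10 and 1 µM as test concentration; the first replicate is given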
# Target sequence (P42568 whole entry, looked up): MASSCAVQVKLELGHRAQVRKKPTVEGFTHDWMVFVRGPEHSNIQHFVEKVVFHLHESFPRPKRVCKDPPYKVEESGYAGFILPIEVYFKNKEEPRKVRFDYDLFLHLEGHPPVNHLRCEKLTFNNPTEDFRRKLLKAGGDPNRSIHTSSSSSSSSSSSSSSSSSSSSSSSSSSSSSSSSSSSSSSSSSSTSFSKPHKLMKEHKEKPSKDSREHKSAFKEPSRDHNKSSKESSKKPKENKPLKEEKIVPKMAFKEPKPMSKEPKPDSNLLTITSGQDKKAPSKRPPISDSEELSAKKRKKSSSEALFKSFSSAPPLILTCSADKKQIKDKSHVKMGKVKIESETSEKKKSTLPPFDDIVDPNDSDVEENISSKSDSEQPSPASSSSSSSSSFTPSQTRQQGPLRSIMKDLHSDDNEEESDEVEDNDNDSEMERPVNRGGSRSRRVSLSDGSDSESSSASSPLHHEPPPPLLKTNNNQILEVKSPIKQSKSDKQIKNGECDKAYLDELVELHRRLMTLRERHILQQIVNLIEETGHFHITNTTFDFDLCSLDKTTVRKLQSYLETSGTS
# E coli growth: inhibitors of Escherichia coli growth; OD600, 23 h; hits give low values; OD600 absorbance (concentration not given with the values); hit rate 0.21% among 330,000;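 active = OD600 absorbance below the run mean of sample wells minus 3.6 SD, in any replicate, cut at about 0.56 in these data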;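 also: stock transfer was 300 nL into about 60 µL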
# HNF4A DNA FP: change in binding of human HNF4 alpha to DNA; P41235; HNF4a-FITC DNA binding, fluorescence polarization, 1 h; activity change, % at 10 µM; hit rate 0.3% among 360,000; AID 1224865; in the data active = activity change above about 30%, passing the limit was not always enough;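 also: controls were the assay level and a saturating level of protein; the project sought stronger binding though the title names inhibitors; some compounds called inactive have numbers as strong as hits; positive values seem to mean higher polarization but the record does not say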
# ALR H2O2 inh: human ALR oxidase inhibition via reduced H2O2 | AID 485317 | inhibition, % (no concentration beside the values) | hit rate 3.8% among 290,000 | P55789 | purified ALR, DTT oxidation, H2O2 HRP-luminol luminescence;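 active = mean and each replicate at 75% or more; inconclusive = only one of the two met; inactive = neither met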;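 also: stock transfer was 7.5 nL into about 7.5 µL; 0% = neutral wells and 100% = wells with inactivated enzyme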
# Target sequence (P55789 whole entry, looked up): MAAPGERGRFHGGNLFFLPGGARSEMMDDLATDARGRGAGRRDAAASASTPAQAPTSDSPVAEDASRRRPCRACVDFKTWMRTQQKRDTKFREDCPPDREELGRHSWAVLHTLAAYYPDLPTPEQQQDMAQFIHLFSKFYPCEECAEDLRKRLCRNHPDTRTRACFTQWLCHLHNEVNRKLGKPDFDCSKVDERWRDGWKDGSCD
# FGF22 binding: FGF22 (human) thermal shift binding | Q9HCT0 | recombinant FGF22 thermal shift, SYPRO orange fluorescence; percent of sucrose octasulfate shift, DMSO zero | calls only at 9.99 µM | hit rate 1.5% among 340,000 | AID 651658;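 active = melting point raised past a set limit in the mean and every replicate; inconclusive = no clear call; three in four hits are not shown here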
# Target sequence (Q9HCT0 whole entry, looked up): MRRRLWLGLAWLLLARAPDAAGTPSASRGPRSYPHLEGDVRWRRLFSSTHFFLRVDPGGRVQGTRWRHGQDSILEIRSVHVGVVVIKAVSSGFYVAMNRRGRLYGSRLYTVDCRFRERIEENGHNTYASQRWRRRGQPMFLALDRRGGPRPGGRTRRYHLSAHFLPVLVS
# Ecoli rRNA inh: inhibits bacterial ribosomal RNA function over humanized ribosomes | AID 720706 | hit rate 1.6% among 350,000 | GFP signal change (wild-type ribosome), % (no concentration beside the values) | E. coli WT GFP vs humanized-ribosome RFP mutants, fluorescence, 24 h; hits give low values; DMSO median 0, no signal -100;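 active = significant combined selectivity score with lowered wild-type GFP, culture density cut under 30%, mutant RFP and density less affected; inactive = any of these conditions unmet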; also: one replicate is shown; some compounds called inactive have numbers as strong as hits
# Ecoli rRNA inh OD600: second read-out of Ecoli rRNA inh, no call of its own (marks repeat the call); OD600 change, %; measured here: OD600 growth;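 optical density of the mix in the first replicate; 0 = DMSO median and -100 = no signal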
# Ecoli rRNA inh RFP: also measured in Ecoli rRNA inh; calls as there; RFP signal change, %; measured here: RFP humanized mutant strains;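 first replicate; 0 = DMSO median and -100 = no signal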
# * = called active by the depositor; i = inactive; ? = inconclusive; . = no result given. A portion of the library (hit frequency here may not be typical).
SMILES,Vif A3G,AF4-AF9 inh,E coli growth,HNF4A DNA FP,ALR H2O2 inh,FGF22 binding,Ecoli rRNA inh,Ecoli rRNA inh OD600,Ecoli rRNA inh RFP
C[C@@H]1CCCCO[C@@H](CN(C)Cc2ccc3c(c2)OCO3)[C@H](C)CN([C@H](C)CO)C(=O)c2cc(NC(=O)c3ccncc3)ccc2O1,.,1.2,.,.,.,i,0,3,-2.6
O=C(NCCCc1ccccc1)C(=O)NCC1OCCN1S(=O)(=O)c1ccc(F)cc1 (centres undefined),.,2.1,0.69,-0.7,5,i,3,-5,0.7
COC(=O)c1cn(C(=O)c2ccc(C)c(C)c2)c2ccccc12,-2%,-63,0.69,-2.6,-1,i,16,11,-2.4
NCCOc1ccccc1OCCN,1%,1.4,0.69,0.1,-30,i,17,11,0.6
COc1cccc(CN2[C@H](CO)[C@H](c3ccccc3)C23CN(C(=O)C2CC2)C3)c1,.,-12,.,.,.,i,-6,-2,1.0
COc1cc(C2C(C#N)=C(N)N(N(C)C)C3=C2C(=O)CC(C)(C)C3)cc(OC)c1OC (centres undefined),.,1.3,0.67,0.9,5,i,1,7,3.2
CN(C)S(=O)(=O)c1ccc(C(=O)Nc2ccccc2OC(F)(F)C(F)F)cc1,4%,-6.5,0.69,3.6,-6,i,-13,-5,1.4
O=C(NCC(=O)N(c1ccc(Cl)cc1)C(C(=O)NC1CCCC1)c1ccncc1)c1ccco1 (centres undefined),.,-4.4,0.71,-1.5,.,i,1,-2,-1.0
COc1cc(C2NC(=O)CCC2[N+](=O)[O-])cc(OC)c1OC (centres undefined),-10%,-2.1,0.68,-2.8,-1,i,9,6,-1.7
COCC#Cc1cnc2c(c1)C(=O)N([C@H](C)CO)C[C@H](C)[C@@H](CN(C)C(=O)Cc1cccnc1)O2,.,-0.1,.,.,.,i,2,4,0.8
O=C(Cc1ccc(S(=O)(=O)N2CCOCC2)s1)N1CCN(S(=O)(=O)c2ccccc2F)CC1,.,-9.1,0.69,-0.8,.,i,8,10,-3.2
COc1ccc2c3c([nH]c2c1)[C@@H](CO)N(C(C)=O)CC31CN(S(=O)(=O)c2ccccc2)C1,.,0.4,.,.,.,i,-7,-8,1.1
CCOC(=O)C1CCN(C(=O)c2cccc(S(=O)(=O)N3c4ccccc4CC3C)c2)CC1 (centres undefined),-7%,-10,0.69,-0.9,-11,i,-3,-28,-1.6
C[C@@H]1CN([C@@H](C)CO)C(=O)c2cc(NS(=O)(=O)c3cccs3)ccc2O[C@H]1CN(C)S(=O)(=O)c1ccc(Cl)cc1,.,-2.1,.,.,.,i,-3,-11,-3.3
CCNC(=O)[C@H]1[C@H](CO)[C@H]2Cn3c(ccc(-c4ccccc4)c3=O)[C@H]2N1Cc1ccccc1,.,1.6,.,.,.,i,-3,-16,1.6
CC(=O)c1ccc(NS(=O)(=O)c2cccc3cccnc23)cc1,.,0.5,.,1.7,.,i,6,3,-3.1
CN1CCN(S(=O)(=O)c2ccc(NC(=O)c3ccc(Br)s3)cc2)CC1,-3%,.,0.65,2.6,.,.,.,.,.
Cc1ccc(C)c(C(=O)CN2C(=O)NC3(CCC(C)CC3)C2=O)c1 (centres undefined),22%,.,0.68,3.9,.,.,.,.,.
N=c1c(C(=O)NCc2ccco2)cc2c(=O)n3ccccc3nc2n1CCc1ccccc1,20%,.,0.72,1.2,-3,.,.,.,.
O=C(NC1CCCc2ccccc21)c1cc(F)cc(F)c1 (centres undefined),.,-10,0.7,3.8,.,i,7,13,0.1
N#CC1(C#N)C(c2ccccc2)OC23CCCCCC2C1(C#N)C(=N)O3 (centres undefined),19%,.,0.68,-5.2,-15,.,.,.,.
COc1ccc([C@H]2CC(=O)C=C(c3cccc(CO)c3)C2)cc1,.,0.2,.,-1.3,14,i,-16,-16,-14
CC=Cc1ccc2n(c1=O)C[C@H]1[C@H](CO)[C@@H](C(=O)NCc3ccccc3F)N(S(C)(=O)=O)[C@@H]21 (mixture of isomers),.,-0.3,.,.,.,i,1,5,1.5
CCCn1c(SCC(=O)Nc2ccc(Cl)cc2)n[nH]c1=O,-7%,1.8,0.69,1.6,.,i,-2,-5,7.4
CC1CCC(NC(=O)c2ccc3snnc3c2)CC1 (centres undefined),.,-0.8,0.7,2.3,-10,i,3,13,-2.6

# Further results.
SMILES,Vif A3G,AF4-AF9 inh,E coli growth,HNF4A DNA FP,ALR H2O2 inh,FGF22 binding,Ecoli rRNA inh,Ecoli rRNA inh OD600,Ecoli rRNA inh RFP
CCOC(=O)c1cnc2c(Cl)cc(Cl)cc2c1NCCOCCO,-5%,.,0.71,2.2,0,.,.,.,.
CC(C)OCCCNC(=S)Nc1ccc2nc3n(c(=O)c2c1)CCCCC3,-5%,-4.4,0.7,-2.6,-5,i,-2,-3,-0.7
CCCC#Cc1ccc([C@@H]2[C@H](CO)N3CCCCN(S(C)(=O)=O)C[C@@H]23)cc1,.,4.2,.,.,.,i,3,-2,1.4
Cc1ccc(-c2c(C)n([O-])c3c([n+]2=O)CCCC3)cc1,29%,-1.8,0.63,3.2,.,i,16,16,2.5
CCc1nnc(NC(=O)c2ccc(OC)cc2OC)s1,?,.,0.71,5.9,-4,.,.,.,.
O=C1Nc2ccc([N+](=O)[O-])cc2OC1CCN1CCN(Cc2ccc3c(c2)OCO3)CC1 (centres undefined),-3%,19,0.73,1.5,0,i,2,-16,3.9
O=C(CN(c1ccccc1)S(=O)(=O)c1ccccc1)Nc1ccc(F)cc1,-2%,-0.5,0.69,0.1,-3,i,0,9,3.4
COc1ccc(C2C(C(=O)N3CCN(c4ccccc4)CC3)c3ccccc3C(=O)N2C)cc1 (centres undefined),19%,.,0.69,1.2,.,.,.,.,.
COCC#Cc1cnc2c(c1)C(=O)N([C@@H](C)CO)C[C@@H](C)[C@H](CN(C)C(=O)Nc1ccccc1OC)O2,.,-8.6,.,.,.,i,3,9,-4.6
O=Cc1ccc(-n2cccn2)cc1,5%,0.1,0.65,-0.8,5,i,23,16,3.0
CC(=O)C[C@@H](O)CC(=O)[C@@H]1OC(=O)[C@H](C)C/C=C\Cc2ccccc21,.,2.9,0.77,-3.7,-4,i,12,8,2.5
CC(C)NC(=O)Nc1cccc2c1O[C@@H](CN(C)CC1CCCCC1)[C@@H](C)CN([C@H](C)CO)C2=O,.,-0.9,.,.,.,i,4,4,0.9
CC(C)C[C@H](NC(=O)OC(C)(C)C)c1nnc(SCc2ccccc2)o1,17%,.,0.69,-0.1,-1,.,.,.,.
CCOC(=O)C(=CNc1ccc2c(c1)nnn2-c1ccc(Cl)cc1)C(=O)OCC,9%,.,0.65,1.9,-5,.,.,.,.
COc1ccc(C(CNC(=O)CCNS(=O)(=O)c2ccc(Br)cc2)N2CCOCC2)cc1 (centres undefined),.,0.1,0.69,0.4,.,i,-1,2,0.5
C[C@@H]1CN([C@@H](C)CO)C(=O)c2cc(NC(=O)c3ccncc3)ccc2O[C@H]1CN(C)Cc1ccc(C(=O)O)cc1,.,-3.3,.,.,.,i,1,0,-0.6
C[C@@H]1CCCCO[C@H](CN(C)S(=O)(=O)c2ccccc2)[C@H](C)CN([C@@H](C)CO)C(=O)c2cc(NS(=O)(=O)c3ccc(Cl)cc3)ccc2O1,.,-1.6,.,.,.,i,-1,-10,0.0
CNC[C@H]1OCCCC[C@H](C)Oc2ccc(NC(=O)Nc3c(C)noc3C)cc2C(=O)N([C@H](C)CO)C[C@@H]1C,.,-7.4,.,.,.,i,11,-5,-0.4
Cc1ccc(S(=O)(=O)NC(=O)Nc2ccc(C)cc2C)cc1,.,0.9,0.7,-3.6,-16,i,26,20,3.5
CCC(=O)N1CCCCN2[C@@H](CO)[C@H](c3ccc(C#Cc4ccccc4F)cc3)[C@@H]2C1,.,2.3,.,.,.,i,-58,-75,-16
CC=Cc1ccc2n(c1=O)C[C@H]1[C@H](CO)[C@@H](C(=O)NCc3ccccc3F)N[C@@H]21 (mixture of isomers),.,2.2,.,.,.,i,-1,-1,-3.2
CC(=O)[C@@]1(O)CC[C@H]2[C@@H]3C[C@H](C)C4=CC(=O)C=C[C@]4(C)[C@@]3(F)[C@@H](O)C[C@@]21C,26%,-4.6,.,4.8,.,i,.,.,.
CN(C)C(=O)C[C@@H]1CC[C@@H](NC(=O)Nc2cccc(F)c2)[C@H](CO)O1,.,-1.9,.,.,.,i,0,0,0.4
COc1ccccc1NS(=O)(=O)c1ccc(NC(C)=O)cc1,6%,.,0.73,-0.2,1,.,.,.,.
COc1ccc(NC(=O)COc2coc(CN3CCN(c4ccccc4)CC3)cc2=O)cc1,0%,0.9,0.69,-1.1,.,i,4,3,1.7

# Additional entries:
SMILES,Vif A3G,AF4-AF9 inh,E coli growth,HNF4A DNA FP,ALR H2O2 inh,FGF22 binding,Ecoli rRNA inh,Ecoli rRNA inh OD600,Ecoli rRNA inh RFP
CCN1C(=O)Cc2cc(S(=O)(=O)NCCc3ccccc3)ccc21,.,-4.3,0.69,-0.8,.,i,-2,5,-0.4
CCC1(CC)NC(=O)N(CC(=O)OCc2nc3cc(C(=O)OC)ccc3c(=O)[nH]2)C1=O,.,0.2,0.65,-2.0,-5,i,17,13,-3.4
C[C@@H](O)C#Cc1ccc([C@H]2[C@H](CO)N3CCCCN(C(=O)c4cccc(F)c4)C[C@@H]23)cc1,.,-6.9,.,.,.,i,2,3,-2.5
Cc1cccc(N2CCN(C(=O)c3cc4c(=O)n(C)c5ccccc5c4n3C)CC2)c1C,-7%,-4.3,0.77,-4.6,-7,i,-6,-5,-0.5
O=C(Nc1ccccc1)N1CCCN(Cc2c(F)cccc2Cl)CC1,-1%,1.6,0.68,10,.,i,4,4,-0.9
CC(=O)N1CCN(S(=O)(=O)c2cccc(C(=O)OCC(=O)NCc3ccccc3Cl)c2)CC1,.,-2.4,.,-1.4,.,i,11,10,1.6
C[C@@H]1CCCCO[C@H](CN(C)S(C)(=O)=O)[C@H](C)CN([C@@H](C)CO)C(=O)c2cc(N(C)C)ccc2O1,.,-3.2,.,.,.,i,5,5,4.5
COc1ccc(CN(C)C[C@H]2OCCCC[C@H](C)Oc3ccc(NS(=O)(=O)c4ccc(Cl)cc4)cc3C(=O)N([C@@H](C)CO)C[C@@H]2C)cc1,.,-2.3,.,.,.,i,7,-26,16
CCOc1ccc(Br)cc1S(=O)(=O)N1CCCC1,-2%,.,0.69,1.9,-5,.,.,.,.
O=CNc1ccc2c(c1)Cc1cc([N+](=O)[O-])ccc1-2,-2%,-1.0,0.68,-2.1,.,i,-30,-51,-8.9
C[C@@H]1CN([C@@H](C)CO)C(=O)Cc2cc(N(C)C)ccc2O[C@H]1CN(C)C(=O)Nc1ccccc1,.,1.1,.,.,.,i,0,-9,-1.4
O=c1[nH]ncc(NCc2ccc(Cl)cc2)c1Cl,?,-6.0,0.72,0.9,-3,i,-2,2,-3.0

# Whole records from above. Order of screens: Vif A3G | AF4-AF9 inh | E coli growth | HNF4A DNA FP | ALR H2O2 inh | FGF22 binding | Ecoli rRNA inh | Ecoli rRNA inh OD600 | Ecoli rRNA inh RFP
# COCC#Cc1cnc2c(c1)C(=O)N([C@@H](C)CO)C[C@@H](C)[C@H](CN(C)C(=O)Nc1ccccc1OC)O2 across the screens: . | -8.6 | . | . | . | i | 3 | 9 | -4.6
# C[C@@H]1CN([C@@H](C)CO)C(=O)Cc2cc(N(C)C)ccc2O[C@H]1CN(C)C(=O)Nc1ccccc1 across the screens: . | 1.1 | . | . | . | i | 0 | -9 | -1.4
# CCOC(=O)c1cnc2c(Cl)cc(Cl)cc2c1NCCOCCO across the screens: -5% | . | 0.71 | 2.2 | 0 | . | . | . | .
